StopGo reporter: FMDV 2A StopGo reporter, luciferase signal; Potency, µM (top dose mostly 57.9 µM), without a hit: at the highest dose signal change, negative = less light; hit rate 1.2% among 410,000; human cells with a luciferase reporter of 2A StopGo recoding; control for the full effect not named in the record; active = well fitted falling curve with a large enough effect; inconclusive = small, poorly fitted or top-dose-only effect; inactive = no such curve, though single readings can be large or run the other way; tested in HEK293T cells; further: on the % scale 0 is the no-effect control and ±100 the full control effect; nearly all actives have a fitted effect of over 45% in size; luciferase light after 4 h
Cruzain Triton: inhibitors of Trypanosoma cruzi cruzain with detergent. AID 1478. purified cruzain, Z-FR-AMC fluorescence, 0.01% Triton. hit rate 0.43% among 200,000. Potency, µM, for the others: max response, negative = inhibition, most hits filed as inhibitors. P25779; active means well fitted curve in the direction sought with a large enough effect; inconclusive means small, poorly fitted or top-dose-only effect, or another doubt; inactive means no such curve, though single readings can be large; an effect the other way counts as inactive or inconclusive;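 further: plate controls were neutral wells for no effect and buffer without enzyme for full effect; nearly all actives have a fitted effect of over 40% in size; top concentration of the series not given in the record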
Target sequence (P25779 123-467 limits assumed): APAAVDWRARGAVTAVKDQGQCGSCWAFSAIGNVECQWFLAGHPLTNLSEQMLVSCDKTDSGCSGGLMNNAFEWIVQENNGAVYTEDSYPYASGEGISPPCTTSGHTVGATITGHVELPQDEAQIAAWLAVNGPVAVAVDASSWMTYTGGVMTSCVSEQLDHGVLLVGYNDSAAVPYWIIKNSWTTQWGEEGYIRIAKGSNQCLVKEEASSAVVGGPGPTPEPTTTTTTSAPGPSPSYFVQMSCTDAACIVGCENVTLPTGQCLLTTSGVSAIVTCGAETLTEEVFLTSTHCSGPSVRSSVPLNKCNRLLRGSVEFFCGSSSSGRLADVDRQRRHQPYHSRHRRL
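Enzyme 1.5 nM, Z-FR-AMC 2 uM, NaOAc 100 mM pH 5.5, DTT 5 mM, Triton X-100 0.01%; 15 min RT compound preincubation; kinetic ex360/em450, 60 s delta.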
SARS PLP yeast: blocks SARS-CoV papain-like protease in a yeast assay | Potency, µM (series often up to 32.9 µM), for inactives: at the top dose activity, positive = growth rescue | AID 485353 | hit rate 0.19% among 330,000 | S. cerevisiae expressing SARS-CoV PLpro, growth rescue; control for the full effect not named in the record; further: 0% is about no effect; nearly all actives have a fitted effect of over 55% in size; growth read by luminescence after 48 h
MARV entry inh: blocks Marburg virus binding to or entry into cells; Marburg virus pseudotyped entry inhibition, cell reporter; control for the full effect not named in the record; about a third of the inactives were read at about 46 µM; Potency, µM (doses to about 37.8 µM), for inactives: top-dose activity change, negative = inhibition, most hits filed as inhibitors; hit rate 1.8% among 300,000; AID 540276; active = well fitted inhibition curve with a large enough effect; inconclusive = small, poorly fitted or top-dose-only effect, or effect the other way; inactive = flat fitted curve, though single readings scatter; tested in HEK293 cells; about a fifth of its hits are not listed in these tables; further: on the % scale 0 is the no-effect control and ±100 the full control effect; luciferase read-out
Cruzain noTriton: blocks cruzain activity in detergent-free assay; hit rate 2.3% among 200,000; purified cruzain, Z-FR-AMC fluorescence, no detergent; Potency, µM, for the others: max response, negative = inhibition, most hits filed as inhibitors; AID 1476; P25779; active means well fitted curve in the direction sought with a large enough effect; inconclusive means small, poorly fitted or top-dose-only effect, or another doubt; inactive means no such curve, though single readings can be large; an effect the other way counts as inactive or inconclusive;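 further: plate controls were enzyme without inhibitor for no effect and buffer without enzyme for full effect; nearly all actives have a fitted effect of over 40% in size; top concentration of the series not given in the record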
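Detergent-free condition (0.00005% Triton X-100) in acetate buffer pH 5.5 with DTT. 1.5 nM enzyme and compound were pre-mixed 15 min, then 2 uM Z-FR-AMC substrate added; reaction progress from fluorescence change between first and third reads (60 s).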
LASV entry inh: blocks Lassa virus binding to or entry into cells; Potency, µM (doses to about 37.9 µM), without a hit: top-dose activity change, negative = inhibition, usual class: inhibitors; AID 540256; hit rate 1.2% among 300,000; Lassa virus pseudotype entry inhibition, cell reporter; control for the full effect not named in the record; active means well fitted inhibition curve with a large enough effect; inconclusive means small, poorly fitted or top-dose-only effect, or effect the other way; inactive means flat fitted curve, though single readings scatter; tested in HEK293 cells; further: on the % scale 0 is the no-effect control and ±100 the full control effect; nearly all actives have a fitted effect of over 50% in size; luciferase read-out
RE007 growth inh: less growth of the S. pombe RE007 Vpr strain; S. pombe RE007 Vpr strain, BacTiter-Glo ATP luminescence, 24 h; control for the full effect not named in the record; Potency, µM (titrated, usually from 92.2 µM), without a hit: top-dose activity change, negative = less growth; hit rate 0.21% among 360,000; AID 651644; active = well fitted falling curve with a large enough effect; inconclusive = small, poorly fitted or top-dose-only effect; inactive = no such curve, though single readings can be large or run the other way;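 further: on the % scale 0 is the no-effect control and ±100 the full control effect; nearly all actives have a fitted effect of over 50% in size; the assay follows cell death caused by Vpr and the record does not say whether a fall means rescue or toxicity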
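Fission yeast strain RE007, carrying one chromosomally integrated HIV-1 vpr copy, was seeded at OD 0.01 in PMG+AL medium with 23 nL pinned compound. After 24 h at 30 °C and 99% humidity, viability was read by BacTiter-Glo luminescence.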
NS1 function inh: inhibitors of influenza NS1 protein function. hit rate 0.4% among 270,000. AID 2326. Potency, µM (titrated, usually from 46.1 µM), for the others: at the top dose activity, positive = more growth. S. cerevisiae slowed by influenza A NS1, growth recovery by OD600; further: actives are rising curves; nearly all actives have a fitted effect of over 50% in size
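Read-out: OD600 growth recovery of NS1-expressing budding yeast. Cells grown overnight at 30C in -URA glucose medium, washed, resuspended and diluted 1:100 in 2% galactose assay medium, pH 6.0. Same strain lacking NS1 served as positive control.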
Starred values were filed as active, the others as inactive; ? = inconclusive; . = not tested or not shown; & = joins results of further samples; [ ] = dose if it differs, or a comment. Unless noted, the call rests on the fitted dose curve; in most records, active means well fitted rising curve with a large enough effect; inconclusive means small, poorly fitted or top-dose-only effect; inactive means no such curve, though single readings can be large or run the other way. Potency means the concentration at half of the fitted maximal effect. Rows were taken by chance. About 4.7% of those tested had a hit in this group.

Results follow in this order: StopGo reporter, Cruzain Triton, SARS PLP yeast, MARV entry inh, Cruzain noTriton, LASV entry inh, RE007 growth inh, NS1 function inh
> O=C(NNS(=O)(=O)c1ccccc1C(F)(F)F)c1cc2ncc(C(F)(F)F)cc2s1
  -19%, ., 0%, 6%[46.1 µM], ., -4%[46.1 µM], -21%, -2%
> O=C1NNC(c2ccccc2)=N/C1=C\c1ccccc1
  6%, ., 0%, ., ., ., 15%, -1%
> Cc1oc(-c2ccc(C(=O)Nc3ccccc3F)cc2)nc1COc1ccccc1
  0%, -2.8%, ., ., 9%, 16%[46.1 µM], ., .
> Cc1ccc(-n2nnnc2SCC#N)cc1
  -5%, ., 2%, 2%[46.1 µM], ., 10%, -7%, .
> CCOc1ccc(Cl)cc1CNCCNCCO
  -18%, 5.3%, -15%, -21%, -13%, -8%, 3%, 1%
> CS/C(=N\S(=O)(=O)c1cccs1)Nc1ccc(N2CCOCC2)cc1
  -1%, 1.6%, 14%, 1%, 2%, 19%, 14%&9%, -12%
> Cc1cc(C(=O)COC(=O)C2=COCCO2)c(C)n1-c1cccc(F)c1
  -45%, ., 5%, ?, ., ?, 17%, .
> CCCCCn1c(-c2cccc(C)c2)nc2ccccc21
  ?, -9.8%, ., ?, 1%, 15%[46.1 µM], ., .
> COc1ccc(OCCC(=O)OCC(=O)Nc2ccc(S(=O)(=O)N3CCOCC3)cc2)cc1
  -10%, ., -1%, ?, ., 2%, 5%, .
> CC(=O)c1cccc(NC(=O)N2CCCC2C(=O)NCc2ccc3c(c2)OCO3)c1 (centres undefined)
  -7%, ., 0%, -4%[46.1 µM], ., 7%[46.1 µM], -8%, 5%
> CC(c1ccco1)N(C(=O)c1ccc(Cl)s1)c1ccccn1 (centres undefined)
  ., -0.8%, 2%, -9%, -2%, ?, -13%, -11%
> O=C(NC1CCCCC1)NC1CCN(S(=O)(=O)Cc2ccccc2)CC1
  -7%, -0.9%, -1%, -2%, -11%, ?, 5%, 4%
> CN(C(=O)COC(=O)c1ccc2ccccc2n1)C1CCCCC1
  5%, ., 27%, -1%, ., 0%, 1%, .
> CCOc1ccc(C2C(=O)N(C3CCCCC3)CC(=O)N2C2CCCC2)cc1OC (centres undefined)
  -16%, 0.1%, ., ., -8%, 1%[46.1 µM], ., .
> Cc1ccsc1C(=O)C1CCCN(Cc2cn(C)nc2-c2ccccc2)C1 (centres undefined)
  -20%, ., -1%, ?, ., ?, 1%, -1%

Other records follow.
Results follow in this order: StopGo reporter, Cruzain Triton, SARS PLP yeast, MARV entry inh, Cruzain noTriton, LASV entry inh, RE007 growth inh, NS1 function inh
> Cc1cc2[nH]c(=O)c(=O)[nH]c2cc1S(=O)(=O)N1CCN(c2cccc(C(F)(F)F)c2)CC1
  -17%&-17%, ., -4%, ., ., 2%[46.1 µM], 0%, 11%
> Cc1noc(C(=O)Nc2cc(Cl)ccc2O)c1Cl
  -18%, ., -6%, ?, ., -9%[46.1 µM], -17%, -31%
> CCOCc1cc(CN2CCN(c3ccccc3OC)CC2)c(O)c2ncccc12
  0%, 3.7%, ., ?, ?, ?, ., .
> CC1=C(C(=O)Nc2ccc(C(=O)N3CCN(c4ccccc4F)CC3)cc2)SCCO1
  0%, ., 2%, ., ., ., 5%, -9%
> Cc1c(CC(=O)O)c(=O)oc2c(C)c3occ(-c4ccc(F)cc4)c3cc12
  -1%, ., 2%, 13%[46.1 µM], ., 26%[46.1 µM], -8%, 0%
> COc1ccccc1OCCOc1ccc(/C=C2\C(=N)N3N=C(S(C)(=O)=O)SC3=NC2=O)cc1
  -15%, ., 2%, ., ., ., 1%, 11%
> O=C(COC(=O)C1CCN(C(=O)c2ccc(Cl)cc2)CC1)c1ccco1
  -9%, -6.7%, -1%, -20%, 2%, -21%, 17%, -11%
> CC1CCN(C(=O)c2ccc(CNc3c(N4CCCC4)c(=O)c3=O)cc2)CC1
  -12%, ., -1%, -2%[46.1 µM], ., 19%, -8%, -8%
> CCN(CC(=O)NCc1ccc(Cl)cc1)C(=O)CCC(=O)c1ccc(C)cc1
  44%[activator], ., 0%, -27%, ., 8%, -12%, .
> CCC(C)(C)N1CC(=O)N(Cc2ccccc2)C(c2ccc(OC)cc2)C1=O (centres undefined)
  -17%, 7.5%, -6%, ?, 9%, -11%, 0%, -14%
> COc1ccc(-c2noc(CCCc3ccccc3)n2)cc1OC
  27%, -5.2%, -11%, -2%, ?, -6%, -8%, -42%
> Cc1nc2ccccc2c2oc(C(=O)NCCN3CCN(C)CC3)cc12
  0%, -1.0%, -4%, ., -18%, ., -9%, 15%
> Nc1ccc(O)c([N+](=O)[O-])c1
  -30%, -5.4%, -4%, ., -7%, ., -7%, .
> CNC(=O)c1c(NC(=O)/C=C/c2ccccc2Cl)sc2c1CCC2
  -15%, -0.9%, ., ., -6%, -2%[46.1 µM], ., .
> Fc1ccc(-c2cn3cc(Cc4ccc(Cl)cc4)sc3n2)cc1
  44%[activator], -5.3%, ., ?, 18%, 16%[46.1 µM], ., .

Of the compounds above, these contain four or more nitrogen atoms:
Results follow in this order: StopGo reporter, Cruzain Triton, SARS PLP yeast, MARV entry inh, Cruzain noTriton, LASV entry inh, RE007 growth inh, NS1 function inh
> Cc1ccc(-n2nnnc2SCC#N)cc1
  -5%, ., 2%, 2%[46.1 µM], ., 10%, -7%, .
> Cc1cc2[nH]c(=O)c(=O)[nH]c2cc1S(=O)(=O)N1CCN(c2cccc(C(F)(F)F)c2)CC1
  -17%&-17%, ., -4%, ., ., 2%[46.1 µM], 0%, 11%
> COc1ccccc1OCCOc1ccc(/C=C2\C(=N)N3N=C(S(C)(=O)=O)SC3=NC2=O)cc1
  -15%, ., 2%, ., ., ., 1%, 11%
> Cc1nc2ccccc2c2oc(C(=O)NCCN3CCN(C)CC3)cc12
  0%, -1.0%, -4%, ., -18%, ., -9%, 15%

Grouped by structure: those above with a thiophene ring, fused or not (5)
Results follow in this order: StopGo reporter, Cruzain Triton, SARS PLP yeast, MARV entry inh, Cruzain noTriton, LASV entry inh, RE007 growth inh, NS1 function inh
> O=C(NNS(=O)(=O)c1ccccc1C(F)(F)F)c1cc2ncc(C(F)(F)F)cc2s1
  -19%, ., 0%, 6%[46.1 µM], ., -4%[46.1 µM], -21%, -2%
> CS/C(=N\S(=O)(=O)c1cccs1)Nc1ccc(N2CCOCC2)cc1
  -1%, 1.6%, 14%, 1%, 2%, 19%, 14%&9%, -12%
> CC(c1ccco1)N(C(=O)c1ccc(Cl)s1)c1ccccn1 (centres undefined)
  ., -0.8%, 2%, -9%, -2%, ?, -13%, -11%
> Cc1ccsc1C(=O)C1CCCN(Cc2cn(C)nc2-c2ccccc2)C1 (centres undefined)
  -20%, ., -1%, ?, ., ?, 1%, -1%
> CNC(=O)c1c(NC(=O)/C=C/c2ccccc2Cl)sc2c1CCC2
  -15%, -0.9%, ., ., -6%, -2%[46.1 µM], ., .

Going on with the list:
Results follow in this order: StopGo reporter, Cruzain Triton, SARS PLP yeast, MARV entry inh, Cruzain noTriton, LASV entry inh, RE007 growth inh, NS1 function inh
> O=C(NC1CCCCC1)C(c1ccc(Cl)cc1)N(C(=O)c1cnccn1)c1ccc2c(c1)OCO2 (centres undefined)
  ., 7.3%, -1%, 5%&-14%, ?, 4%, -1%, -5%
> Cc1cc(C)n2cc(CSCc3ccccc3)nc2n1
  2%, -14%, -38%, -14%, 17%, 5%, 3%, 9%
> O=C(Nc1ccc(F)cc1)N(CCCN1CCOCC1)Cc1cc2cc3c(cc2[nH]c1=O)OCCO3
  -1%, -7.1%, 4%, -25%&-25%, -9%, 0%, -1%, -2%
> NS(=O)(=O)c1ccc(NC(=O)CCC(=O)c2cccs2)cc1
  -3%, ., 0%, ., ., ., 18%, 2%
> CCOc1ccccc1NC(=O)N1CC(CC)Oc2ccccc21 (centres undefined)
  -13%, -2.1%, ., ., -2%, -17%[46.1 µM], ., .
> CCOC(=O)N1CCN(C(=O)CS(=O)(=O)Cc2nc(-c3ccccc3C)oc2C)CC1
  ?, -1.5%, -38%, ., 16%, ., 24%, -10%
> Cc1cccc(-n2c(CN3C(=O)c4ccccc4C3=O)nc3ccccc3c2=O)n1
  3%, ., ., 18%, ., ?, -8%, 6%
> O=C(Cn1ccc([N+](=O)[O-])n1)NCc1cccnc1
  -8%, ., 0%, 2%[46.1 µM], ., 29%, -8%, .
> O=C(NCc1ccco1)c1cc(=O)c2ccccc2o1
  -4%, ., -1%, 9%[46.1 µM], ., -32%[46.1 µM], 4%, .
> O=C(N/N=C/c1cc(Br)cc(Br)c1O)c1cccc(N2CCCC2=O)c1
  2%, ., 2%, ?, ., ?, 9%, 2%
> CSc1ccc(CCNC(=O)c2cc3c(-c4ccccc4F)nn(C)c3s2)cc1
  -21%, -1.0%, ., -10%[46.1 µM], -13%, -24%[46.1 µM], ., .
> O=C(COC(=O)c1ccc2ccccc2c1)Nc1ncc(C(F)(F)F)cc1Cl
  -18%, 5.1%, -4%[6.58 µM], 0%, -5%, 7%, ?, 4%
> Cc1ccc(-c2cc(C(=O)N3CCN(c4ncccn4)CC3)c3cc(Br)ccc3n2)o1
  -2%, ., 0%, ?, ., -17%, -20%, 10%
> Cc1ccc(NC(=O)COC(=O)c2ccco2)cc1C
  3%, ., -6%, 10%, ., -2%, 19%, .
> CCOC(=O)Cn1c(S(=O)(=O)Cc2ccccc2)nc2ccccc21
  -6%, -1.5%, -3%, 0%, 1%, 5%, 12%, -6%
> O=C1OC(c2ccc(Br)cc2)=N/C1=C\N1CC2CC(C1)c1cccc(=O)n1C2 (centres undefined)
  -14%, ., 0%, ., ., ., -15%, 1%
> C=CCn1c(=O)c(C#N)cc2c(=O)n3ccccc3nc21
  -23%, ?, 2%, 9%, ?, 13%, -3%, 4%
> CCc1cccc(OCC(=O)Nc2c[nH]c(=O)[nH]c2=O)c1
  -5%, ., 3%, 6%[46.1 µM], ., -20%, -9%, .
